miR-21 reporter: miR-21 reporter, rising signal; HeLa miR-21 FLuc reporter, luciferase, 48 h; Potency, µM (top dose mostly 38.3 µM), without a hit: top-dose reporter change, positive = more light; 340,000 tested, under 10 active; active = well fitted rising curve with a large enough effect; inconclusive = small, poorly fitted or top-dose-only effect; inactive = no such curve, though single readings can be large or run the other way;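 further: % of control where 0% means no effect; miR-21 action dims this reporter so a rising signal means less miR-21 action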
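HeLa miR-21-FLuc reporter line, endogenous miR-21; 2000 cells/well in DMEM/10% FBS; compound titration up to ~40uM final, 48 h, 37 degree Celsius; luciferase detection reagent, 15 min lysis, CCD luminescence.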
GLA inh pH 4.5: blocks human alpha-galactosidase A at pH 4.5 | purified enzyme, 4-MU-alpha-Gal fluorescence, pH 4.5 | AID 1467 | 230,000 tested, under 10 active | activity change, negative = inhibition, % at 105 µM | P06280; inconclusive = small, poorly fitted or top-dose-only inhibition, or a rising curve; inactive = flat fitted curve, though single readings scatter; no compound was filed as active;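 further: 0% = full activity with enzyme and -100% = basal without enzyme; dose as in the result columns while the protocol names 77 µM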
Rango-impB inh: inhibitors of Rango-importin beta complex formation | Q14974 | Rango CFP/YFP FRET sensor + importin beta, 45 min | Potency, µM (series often up to 92.2 µM), for the others: at the highest dose inhibition of complex formation | hit rate 0.031% among 340,000 | AID 540263; active = rising FRET ratio curve, often small or poorly fitted; inconclusive = mostly compound fluorescence or quenching in the first reads; inactive = flat curves in all reads;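 further: potency means the concentration at half of the fitted maximal effect; 0% = DMSO wells and 100% = buffer wells lacking importin beta; nearly all actives have a fitted effect of over 15% in size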
Target sequence (Q14974 whole entry, looked up): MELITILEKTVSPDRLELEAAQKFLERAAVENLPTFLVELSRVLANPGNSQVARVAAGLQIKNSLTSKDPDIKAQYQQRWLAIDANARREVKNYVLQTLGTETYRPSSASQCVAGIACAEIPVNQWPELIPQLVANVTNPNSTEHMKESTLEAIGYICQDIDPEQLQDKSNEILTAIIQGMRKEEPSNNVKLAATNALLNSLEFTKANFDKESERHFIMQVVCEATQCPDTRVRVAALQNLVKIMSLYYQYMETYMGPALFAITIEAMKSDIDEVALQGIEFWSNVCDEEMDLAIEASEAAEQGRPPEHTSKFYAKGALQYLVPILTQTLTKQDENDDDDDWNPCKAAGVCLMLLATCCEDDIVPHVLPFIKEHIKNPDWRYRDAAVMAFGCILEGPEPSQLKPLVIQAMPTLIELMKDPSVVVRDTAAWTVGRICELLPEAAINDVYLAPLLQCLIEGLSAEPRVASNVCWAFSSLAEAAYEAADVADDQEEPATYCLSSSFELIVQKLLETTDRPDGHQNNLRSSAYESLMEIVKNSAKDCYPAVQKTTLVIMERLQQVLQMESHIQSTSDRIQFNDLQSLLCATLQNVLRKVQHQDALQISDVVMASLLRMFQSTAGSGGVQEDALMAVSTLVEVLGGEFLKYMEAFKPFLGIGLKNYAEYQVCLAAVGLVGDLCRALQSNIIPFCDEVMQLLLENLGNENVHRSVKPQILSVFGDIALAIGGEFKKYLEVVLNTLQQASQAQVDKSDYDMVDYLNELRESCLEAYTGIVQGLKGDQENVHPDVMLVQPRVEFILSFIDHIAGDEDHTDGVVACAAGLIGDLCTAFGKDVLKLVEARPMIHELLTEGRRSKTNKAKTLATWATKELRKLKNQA
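FRET biosensor Rango (snurportin 1 IBB between N-terminal EYFP and C-terminal Cerulean), 50 nM in PBS/1 mM DTT/0.02% Tween-20/0.1% BSA, preincubated 5 min RT with compound; 0.125 microM importin beta added, 45 min RT, CFP/YFP FRET ratio read.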
Rango release inh: inhibitors of RanGTP-induced Rango-importin beta complex dissociation; O95149+P62826; Biochemical FRET Rango-importin beta, RanGTP-induced dissociation; Potency, µM (titrated, usually from 46.1 µM), without a hit: at the top dose activity change, negative = inhibition; hit rate 0.071% among 340,000; AID 540253; active means falling FRET ratio curve, often poorly fitted, with flat reads before Ran was added; inconclusive means other falling curves, or compound fluorescence or quenching; inactive means flat or rising ratio curve;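 further: potency means the concentration at half of the fitted maximal effect; % of control where 0% means no effect; nearly all actives have a fitted effect of over 45% in size; -100% = wells without RanGTP and RCC1; the record marks most hits as doubtful in a second field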
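Compounds sat 5 min at room temperature with 0.1 uM Rango biosensor plus 0.25 uM importin beta, then FRET pre-read. RanGTP-RCC1 (0.6 uM Ran, 2mM GTP, 0.2 uM RCC1) added for 45 min, and the CFP/YFP post-read measured blocked complex dissociation.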
* hit, by the source's call; u = inconclusive; x = no result given; & = joins results of further samples. Not all compounds are listed; the hit share may differ from the screen's.

| Compound | miR-21 reporter | GLA inh pH 4.5 | Rango-impB inh | Rango release inh |
| --- | --- | --- | --- | --- |
| O=P1(Nc2ccc(F)cc2)COc2ccccc2OC1 | 1% | -2 | u | 18% |
| O=[N+]([O-])c1cc(Cl)c(Cl)cc1Cl | x | x | 0.2% | 21% |
| O=C(Cn1c(=O)n(CC2CS2)c2ccccc21)N1CCCCC1 (configuration not stated) | -1% | -4 | 1.2% | -6% |
| CN1C(=O)NC(=O)/C(=C\c2ccc([N+](=O)[O-])o2)C1=O | 3% | -3 | -1.6% | -12% |
| O=C(Nc1cccc(OC(=O)N2CCCCC2)c1)N1CCCCC1 | -1% | -2 | 0.7% | 2% |
| O=C(c1ccc(Cl)cc1)C1CCCN(Cc2ccc3ncccc3c2)C1 (configuration not stated) | 14% | 5 | 2.5% | 1% |
| C=CCn1c(O)c(C(CC)=Nc2ccccc2NC(C)=O)c(=O)[nH]c1=O | -12% | -4 | -1.3% | -1% |
| CCNc1nc(NC(C)(C)C)nc(SC)n1 | x | x | 2.2% | -13% |
| CC(C)c1ccccc1OCC(=O)N1CCCN(C)CC1 | -7% | x | 0.1% | -19% |
| COCc1ccc(CN2CCCC(C(=O)c3sccc3C)C2)o1 (configuration not stated) | 0% | 2 | 1.5% | -7% |
| NC(Cc1ccc(O)cc1)C(=O)NN=Cc1ccc(N(CCCl)CCCl)cc1 (configuration not stated) | x | x | -2.5% | 0% |
| C=C1C/C(=C/C)C(=O)O[C@@H]2CCN3CC=C(COC(=O)[C@]1(C)O)[C@H]23 | -2% | 6 | 13% | 7% |
| Cc1cc(/C=C2\C(=O)NC(=O)N(c3ccc(F)cc3)C2=O)c(C)n1-c1ccc(C(=O)O)cc1 | 0% | -20 | u | -9% |
| CC(=O)OCC12CC(OC(=O)CC(C)C)C(C)=CC1OC1C(O)C(OC(C)=O)C2(C)C12CO2 (configuration not stated) | x | x | -0.4% | 17% |
| Cc1ccc(N2C(=O)CC(=O)NC2=O)cc1 | -3% | 6 | 2.1% | -7% |
| NC(=O)CN1CCCC1=O | -2% | 3&-7&9 | -6.0% | 2% |
| Cc1cc(NC(=O)COC(=O)c2c(C)nn(Cc3ccccc3)c2Cl)no1 | 6% | 6 | -4.7% | 17% |
| O=C(c1cccc(C(F)(F)F)c1)C1CCCN(Cc2ncc[nH]2)C1 (configuration not stated) | -5% | 2 | -2.0% | 9% |
| c1ccc2c(CN3CCN(C4CCCCC4)CC3)c[nH]c2c1 | -2% | -1 | -0.1% | -6% |
| COc1ccc2nc(/N=C/c3c(O)n(-c4cccc(Cl)c4)c(=O)[nH]c3=O)sc2c1 | -22% | -8 | 0.6% | 19% |
| COCCN(Cc1ccccc1)P(=O)(O)c1ccccc1OCC(=O)O | -4% | 8 | u | 13% |
| O=C(CSC1c2ccccc2-c2ccccc21)N/N=C/c1ccccc1C(=O)O | -6% | -4 | -0.3% | 0% |
| COC12CCC3(CC1C(C)(O)C(C)(C)C)[C@H]1Cc4ccc(O)c5c4[C@@]3(CCN1CC1CC1)C2O5 (some centres not stated) | x | x | u | -27% |
| O=C1NC(=O)C(=Cc2ccco2)C(=O)N1 | x | x | 0.2% | 3% |
| CN1C(=O)C(=Cc2ccc(N3CCOCC3)c([N+](=O)[O-])c2)C(=O)N(C)C1=O | -2% | 2 | x | x |
| O=c1[nH]c(=O)n(Cc2ccccc2)c(O)c1C=NCCN1CCNCC1 | -2% | -4 | -1.5% | -7% |
| C[N+]1(C)C2CC(OC(=O)[C@H](CO)c3ccccc3)CC1C1OC12 (some centres not stated) | x | x | 5.3% | 0% |
| Cc1ccccc1Cc1c(C)nc2nc(SCC(=O)N3CCC4(CC3)OCCO4)nn2c1C | -3% | 5 | 2.4% | -6% |
| C=C[C@H]1CN2CC[C@H]1C[C@H]2[C@H](O)c1ccnc2ccccc12 | x | x | 2.3% | -12% |
| CN(CCc1ccccc1)Cc1c[nH]c2ccccc12 | 24% | x | 5.6% | -14% |
| CN1C(=O)CC(c2ccccc2)Nc2ccccc21 (configuration not stated) | 2% | -10 | 1.1% | -10% |
| NC(=O)c1cc([N+](=O)[O-])cc([N+](=O)[O-])c1 | x | 5 | -0.7% | -1% |
| CCOP(=O)(C#Cc1ccccc1)C(O)c1ccc(Br)cc1 (configuration not stated) | -8% | 7 | 0.6% | 14% |
| CCOP(=O)(OCC)C(NC(=O)c1ccccc1C)C(Cl)(Cl)Cl (configuration not stated) | 6% | 6 | -1.6% | 16% |
| Cc1nccc2c1[nH]c1ccccc12 | 5% | -16&-1&-8&-10&-4 | -0.9% | -4% |
| O=c1ccc2cc(OC3O[C@H](CO)[C@@H](O)[C@H](O)[C@H]3O)c(O)cc2o1 (some centres not stated) | x | x | u | u |

Reformatted with values under each structure: five of the compounds above
Results follow in this order: miR-21 reporter	GLA inh pH 4.5	Rango-impB inh	Rango release inh
c1ccc2c(CN3CCN(C4CCCCC4)CC3)c[nH]c2c1
→ -2%	-1	-0.1%	-6%
C=C[C@H]1CN2CC[C@H]1C[C@H]2[C@H](O)c1ccnc2ccccc12
→ x	x	2.3%	-12%
CN(CCc1ccccc1)Cc1c[nH]c2ccccc12
→ 24%	x	5.6%	-14%
CN1C(=O)C(=Cc2ccc(N3CCOCC3)c([N+](=O)[O-])c2)C(=O)N(C)C1=O
→ -2%	2	x	x
CC(=O)OCC12CC(OC(=O)CC(C)C)C(C)=CC1OC1C(O)C(OC(C)=O)C2(C)C12CO2 (configuration not stated)
→ x	x	-0.4%	17%

The results go on.
compound	miR-21 reporter	GLA inh pH 4.5	Rango-impB inh	Rango release inh
COc1ccc(C(=O)Nc2ccccc2-c2nnn(CC(=O)Nc3ccc4c(c3)OCCO4)n2)cc1	-2%	0	u	-4%
O=C1CN=C(c2ccccc2)c2ccccc2N1Cc1ccc(C(F)(F)F)cc1	-7%	-6	-1.5%	u
COC(=O)C1=C(c2ccc(Cl)c(C(F)(F)F)c2)C[C@@H]2CC[C@H]1N2C(=O)NCCOc1ccccc1Cl	x	x	0.3%	19%
Cc1c(NP(=O)(C(C)(C)C)C(C)(C)C)c(=O)n(-c2ccccc2)n1C	-5%	6	3.5%	-8%
C[C@]12CCC3C(CC[C@H]4[C@@H](O)[C@H](O)CC[C@]34C)C1CCC2=O (some centres not stated)	x	x	0.7%	13%
COC(=O)C1=C(c2ccc(OC)c(OC)c2)C[C@@H]2CC[C@H]1N2C(=O)NCCOc1ccccc1Cl	x	x	-0.9%	-6%
COc1ccc(C=O)cc1O	0%	-6	u	5%
COC(=O)C1=C(c2ccc(C(C)=O)cc2)C[C@@H]2CC[C@H]1N2C(=O)N1CCC(C)CC1	x	x	-5.6%	0%
OC1CCCCC1N1CCC(c2ccccc2)CC1 (configuration not stated)	-5%	4&4&10	-0.3%	6%
CC(C)n1c(=O)c(C=Nc2ccc(Br)cc2)c(O)n(Cc2ccco2)c1=O	-8%	1	-2.9%	0%
Cc1cc(/C=C2/C(=O)NC(=O)N(Cc3ccco3)C2=O)c(C)n1-c1ccccc1	-12%	8	u	u
COc1cc2[nH]c(=O)n(-c3cccc(Cl)c3)c(=O)c2cc1OC	0%	-8	-0.6%	-13%
O=C1NC(=O)[C@]2(Cc3ccccc3N3CCN(c4ccccc4)CC32)C(=O)N1Cc1ccccc1 (some centres not stated)	-37%	-5	-4.7%	-15%
c1ccc(NC2=NCCCS2)cc1	-4%	x	2.3%	-8%
Cn1c(O)c(C=Nc2ccc(Cl)cc2)c(=O)n(C)c1=O	-6%	5	-0.1%	12%
CCOC(=O)c1[nH]c2ccc(OC)cc2c1C(SCC(=O)O)c1ccc(C(F)(F)F)cc1 (configuration not stated)	1%	x	-4.8%	11%
O=C(O)C1CSC(c2cccnc2)N1 (configuration not stated)	-2%	5	4.7%	-2%
c1ccc2c(CN3CCCCCCC3)c[nH]c2c1	9%	4	-0.9%	-2%
CC(C)(C)n1cccc1/C=C1\C(=O)NC(=O)N(c2ccccc2)C1=O	-5%	3	-2.3%	-4%
COc1ccc(-n2c(O)c(C=NCCN(C)C)c(=O)[nH]c2=O)cc1	1%	-6	3.3%	-5%
COC(=O)C(O)(c1c[nH]c2ccccc12)C(F)(F)F (configuration not stated)	-1%	-18	0.2%	0%
Cc1ccccc1-n1c(O)c(/C=C2/C(c3ccccc3)=Nc3ccccc32)c(=O)[nH]c1=O	-7%	2	u	1%
CN(CCc1ccccc1)Cc1ccccc1[N+](=O)[O-]	-18%	2	-2.5%	4%
COc1ccccc1OCCCn1cc(C(=O)c2ccco2)c2ccccc21	-7%	-8	-2.5%	-10%
COc1ccc(CCC(=O)N2C[C@H]3C[C@@H](C2)c2cccc(=O)n2C3)cc1	-1%	x	u	-3%
COC(=O)C1=C(c2ccc(OC)c(OC)c2)C[C@@H]2CC[C@H]1N2C(=O)NCCO	x	x	1.5%	-4%
COC1=C[C@@H]2[C@@H]3Cc4ccc(OC)c(O)c4[C@]2(CCN3C)CC1=O	x	-8	0.2%	21%
O=c1[nH]c(CN2CC=C(c3ccccc3)CC2)nc2scc(-c3cccs3)c12	0%	1	-0.2%	-16%
COc1ccc(-n2c(Cc3cccc([N+](=O)[O-])c3)nc3ccccc3c2=O)cc1	-13%	3	-2.6%	6%
O=c1[nH]c(=O)n(-c2cccc3ccccc23)c(O)c1C=NCc1ccc2c(c1)OCO2	-1%	2	-2.2%	17%
CCCCCn1c(=O)c(C(=O)Nc2ccccn2)c(O)c2ccccc21	0%	x	-1.6%	-1%
Cc1ccc(C)c(CN2CCC(n3nnc4cc(F)ccc43)CC2)c1	-5%	-8	0.6%	-18%
O=c1c2ccccc2nc(-c2ccccc2)n1-n1cccc1	0%	-12	3.0%	-8%
COc1ccc(-n2c(O)c(C(C)=NCC3CCCO3)c(=O)[nH]c2=O)cc1 (configuration not stated)	5%	-1	0.9%	-8%
O=P(Oc1ccccc1)(N1CCOCC1)N1CCOCC1	x	x	-0.2%	-5%
O=C(CN1CC=C(c2ccccc2)CC1)NC(=O)NC1CCCCC1	-6%	-1	u	-20%
Fc1cccc(C2NCc3ccccc3-n3cccc32)c1 (configuration not stated)	0%	x	-1.3%	-7%
CC1(C)c2[nH]c3ccccc3c2C[C@H]2C(=O)N(Cc3ccccc3F)C(=O)N21	x	x	u	u
c1ccc(P(c2ccccc2)c2ccccn2)cc1	3%	3	-1.8%	-2%
CC(=O)OC1C=CC2[C@H]3Cc4ccc(O)c5c4[C@@]2(CCN3C)C1O5 (some centres not stated)	x	x	-0.2%	0%
Clc1ccc(C2NCCc3[nH]cnc32)cc1 (configuration not stated)	-5%	x	-6.1%	12%
Cn1c(=O)cc(SCC(=O)N2CCC3(CC2)OCCO3)c2ccc(Cl)cc21	-3%	-4	1.3%	2%
CC(=O)N(C1=NCCCS1)c1ccccc1F	-3%	4	0.0%	-1%
CC(=O)c1c(O)n(C2CCCCCC2)c(=O)[nH]c1=O	-2%	3	0.2%	-2%
Nc1ccccc1C(=O)OCC(=O)c1ccc2c(c1)OCCO2	-42%	-3	-0.7%	-12%
COCCNC(=O)c1c(NC(=O)c2ccco2)n(Cc2ccccc2)c2nc3ccccc3nc12	6%	7	u	u
CCn1cc(C=C2C(=O)N(C)C(=O)N(C)C2=O)c2ccccc21	4%	x	0.1%	-10%
CC(Cc1ccccc1)[n+]1cc(/N=C(\N)[O-])on1 (configuration not stated)	0%	-8	-0.1%	7%

Assay outcomes deposited in PubChem BioAssay by National Center for Advancing Translational Sciences (NCATS).
